eIF4H inh: human eIF4H binding inhibitors, primary screen, translation initiation inhibitor project, biochemical, uHTS, fluorescence polarization; hit rate 0.94% among 290,000; Eukaryotic translation initiation factor 4H (Homo sapiens), Q15056; inhibition, % at 35 µM; eIF4H fluorescence polarization binding assay;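 active = 50% or more with normal probe brightness, or confirmed in later tests; inconclusive = above 50% with abnormal brightness, or retests that disagree; inactive = below 50% or failed in later tests; about a fifth of its hits are not listed in these tables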;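 also: calls also rest on retests at 20 µM and on dose response follow-up; 0% = protein and probe with vehicle and 100% = probe without protein; strong numbers were not always called active; many hits fall short of the cut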
UUG fidelity: modulators of yeast start codon fidelity, primary screen, whole organism, S. cerevisiae, single point, plate reader; S. cerevisiae UUG-firefly luciferase reporter, luminescence/redox ratio; activity score, % at 18.7 µM; hit rate 0.13% among 350,000; AID 602363, 2012;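 active = replicate mean at a twofold rise or more, about +100% in these data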;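 also: firefly luciferase made from a UUG start codon reports start codon fidelity; reporter light over untreated wells divided by growth signal over untreated wells; some hits fall short of that in this replicate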
Rce1 inh: yeast Rce1p protease inhibitors, primary screen, biochemical, fluorescence, cell-free homogeneous | CAAX prenyl protease 2 (Saccharomyces cerevisiae (strain ATCC 204508 / S288c)), Q03530 | yeast membranes, quenched prenylated peptide cleavage fluorescence | calls only | hit rate 0.27% among 290,000;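 active = fall in fluorescence gain of 50% or more versus controls, with final raw signal at or below 3038400; inconclusive = same 50% fall but final raw signal above 3038400; inactive = fall in fluorescence gain under 50%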;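 also: plate controls were neutral control wells for no effect and wells lacking membranes for full effect; tested at 10 µM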
CSC inhib: cancer stem cell viability inhibitors, primary screen, luminescence; cancer stem cell-like cells viability; inhibition, % at 7.5 µM; hit rate 1.1% among 300,000; AID 2717, 2010;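 active = mean at 75% or more and at least half the replicates too; inconclusive = mean and replicates disagree; tested in HMLE shEcad cells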;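 also: 0% = median of negative and 100% = median of positive control wells; the first replicate is given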
MT1-MMP act inh: blockers of MT1-MMP proenzyme processing, primary screen, HT1080 RFP-PRO-GFP cells, GFP/RFP fluorescence. GFP/RFP ratio fluorescence, overnight; percent of plate control window, DMSO zero. GFP/RFP ratio change, % at 20 µM. hit rate 0.061% among 360,000. AID 651647, 2012;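 active = GFP/RFP ratio change of at least 30% with cell ATP level not reduced by more than half and red fluorescence within 50% of control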; also: strong numbers were not always called active
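Compound: 20 µM single dose, 1% DMSO / System: HT1080 RFP-PRO-GFP cells / Controls: DMSO and RFP-L50D-GFP cell wells / Read-out basis: GFP/RFP fluorescence ratio / Schedule: overnight compound exposure at 37 °C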
HIV Env fusion: inhibitors of HIV-1 Env-driven cell-cell fusion, primary screen, HeLa-JRFL effector, CEM21 target cells, luciferase. inhibition, % at 12.3 µM. hit rate 1.1% among 360,000;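 active = mean replicate inhibition score of at least 50 and every replicate individually at or above 50; inconclusive = only one of the two criteria met; inactive = mean below 50 and not all replicates reaching 50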;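 also: 0% = plate neutral controls and 100% = maraviroc near 300 nM; one replicate is shown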
PABP polyA inh: PABP poly(A) RNA binding inhibitors, primary screen, biochemical, fluorescence polarization, uHTS; Polyadenylate-binding protein 1 (Homo sapiens), P11940; inhibition, % at 35 µM; hit rate 1% among 290,000; AID 2014, 2009;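 active = 50% or more with normal probe brightness, or confirmed in later tests; inconclusive = above 50% with abnormal brightness, or retests that disagree; inactive = below 50% or failed in later tests; about a fifth of its hits are not listed in these tables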;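 also: calls also rest on retests at 20 µM and on dose response follow-up; controls were probe without protein and protein plus probe with vehicle; some compounds called inactive have numbers as strong as hits; many hits fall short of the cut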
Target sequence (P11940 whole entry, looked up): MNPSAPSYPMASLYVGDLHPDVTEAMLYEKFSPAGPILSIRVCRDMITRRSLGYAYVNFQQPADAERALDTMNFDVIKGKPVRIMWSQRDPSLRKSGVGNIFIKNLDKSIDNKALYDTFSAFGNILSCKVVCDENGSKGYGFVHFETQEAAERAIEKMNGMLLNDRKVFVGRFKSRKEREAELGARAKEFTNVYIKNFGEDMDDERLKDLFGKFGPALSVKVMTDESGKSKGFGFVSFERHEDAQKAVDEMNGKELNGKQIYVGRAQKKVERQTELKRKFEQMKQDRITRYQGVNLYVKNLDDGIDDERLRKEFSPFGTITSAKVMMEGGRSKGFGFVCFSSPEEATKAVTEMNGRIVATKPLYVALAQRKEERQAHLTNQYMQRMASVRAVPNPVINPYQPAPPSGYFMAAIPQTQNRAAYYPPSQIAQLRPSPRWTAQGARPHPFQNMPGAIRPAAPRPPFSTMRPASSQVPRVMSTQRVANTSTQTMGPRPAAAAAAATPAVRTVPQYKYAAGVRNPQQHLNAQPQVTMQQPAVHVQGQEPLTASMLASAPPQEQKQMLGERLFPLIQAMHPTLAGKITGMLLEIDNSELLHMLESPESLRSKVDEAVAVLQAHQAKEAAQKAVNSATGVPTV
eIF4H inh retest: also measured in eIF4H inh; calls as there; inhibition, %; compound at 20 µM; confirmation average;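 mean of two retest wells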
PABP polyA inh retest: also measured in PABP polyA inh; calls as there; inhibition, %; compound at 20 µM; confirmation repeats;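 mean of two retest wells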
MT1-MMP act inh RFP: also measured in MT1-MMP act inh; calls as there; RFP signal change, %; measured here: RFP expression control read;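 0 = vehicle wells; hits needed this value within 50% of zero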
* marks the source's active call; other numbers are inactive results; i = inactive; ? = inconclusive; / = not tested or not shown; + = active, no number. Only part of the results is shown; count on the stated rates, not on these rows.

SMILES | eIF4H inh | UUG fidelity | Rce1 inh | CSC inhib | MT1-MMP act inh | MT1-MMP act inh RFP | HIV Env fusion | PABP polyA inh | others
Cc1ccccc1NC(=O)CN1C(=O)NC2(CCCCC2)C1=O | -3 | / | i | -13 | -2 | 6 | / | -2
CN(C)S(=O)(=O)c1cc(NC(=O)COC(=O)CC2Sc3ccccc3NC2=O)ccc1Cl (centres undefined) | / | -20 | / | 9 | -1 | 3 | -9 | /
COc1cccc2cc(C(=O)NCCc3ccccc3)c(=O)oc12 | 4 | -16 | i | 0 | 2 | 6 | -9 | 4
NNC(=O)Cc1cc(=O)[nH][nH]1 | / | -14 | / | / | -1 | 8 | -22 | /
COc1ccc(N=C2C(=O)N3c4c(cccc42)C(C)=CC3(C)C)cc1 | -5 | / | i | 50 | 2 | 6 | / | -2
COC(=O)c1c(C)oc2ccc(NS(=O)(=O)c3cc(OC)ccc3OC)cc12 | -2 | 64 | i | 6 | 8 | -18 | / | 6
CN(Cc1ccc2c(c1)CCCN2C)C(=O)[C@H]1O[C@@H](n2cnc3c(N)ncnc32)[C@H](O)[C@@H]1O | / | 0 | / | / | 0 | 0 | 13 | /
Cc1ccc(-c2nc(CS(=O)(=O)CC(=O)N3CCCCCC3)c(C)o2)cc1 | 6 | 6 | i | -8 | 6 | -17 | 51* | -2
C=C(C)CNC(=S)NNC(=O)CCn1c2ccc(Cl)cc2c2cc(Cl)ccc21 | 12 | / | i | 102* | 5 | -19 | / | -1
COc1cccc(Nc2ccc(-n3ccnc3)nn2)c1 | 5 | -14 | i | 5 | -1 | -4 | -23 | -1
CCN(c1ccccc1)S(=O)(=O)c1cccc(C(=O)NCCN2CCOCC2)c1 | / | -9 | / | -3 | 1 | 4 | / | /
C[n+]1ccc(/C=C/c2ccc(Br)cc2)cc1 | 0 | -17 | i | / | -4 | -2 | / | 40
Cc1ccc(CCNC(=O)C2CC(c3cc(C(F)(F)F)cc(C(F)(F)F)c3)=NO2)cc1 (centres undefined) | 2 | -21 | i | -11 | 0 | -1 | 11 | -11
CCOc1ccc(N2CC(C(=O)Nc3nnc(CC)s3)CC2=O)cc1 (centres undefined) | 4 | -9 | i | 4 | -1 | 3 | 0 | 4
COc1ccc2cc(C(=O)C3CCCN(Cc4cnc(N5CCOCC5)s4)C3)ccc2c1 (centres undefined) | -4 | 13 | i | -3 | -1 | -14 | 12 | -13
O=C(CSc1nc2ccccc2c(=O)n1-c1ccccc1)NCC1CCCO1 (centres undefined) | / | -18 | i | -9 | -4 | 2 | 4 | /
Cc1ccc(C(=O)Nc2nnc(-c3ccco3)o2)cc1C | 6 | / | i | 23 | 9 | 9 | 8 | -9
O=S(=O)(NCc1ccco1)c1cccc2cccnc12 | 11 | -23 | i | 0 | -2 | 0 | / | 7
O=C(C[C@H]1C[C@H](C(=O)N2CCOCC2)[C@@]2(CCC3CCCC3)c3[nH]c4cc(-c5ccco5)ccc4c3CCN2C1=O)NCc1ccco1 | / | -20 | / | / | -24 | -25 | 19 | /
COC(=O)c1cnc(SCc2ccc(Cl)cc2)n1C | -7 | / | i | -13 | -5 | -5 | 7 | 11
Cc1cccc(NC(=O)c2ccc3nccnc3c2)c1C | -2 | -13 | i | -2 | -13 | -5 | 29 | 6
CCC(C)c1ccc(NC(=O)NCc2cccnc2)cc1 (centres undefined) | 0 | -21 | i | 8 | 4 | 4 | -2 | 5
CCOC(=O)c1sc(NC(=S)NC(=O)c2cccc(OC)c2)nc1C | 6 | -25 | i | 11 | 9 | 1 | -20 | 4
CCC1CCCCN1CCCNC(=O)CCCNC(=O)Cn1cnc2sc3c(c2c1=O)CCCC3 (centres undefined) | 9 | / | i | -9 | -1 | -4 | 8 | 10
CC(OC(=O)/C=C/c1ccc2ccccc2n1)C(=O)Nc1ccc(S(N)(=O)=O)cc1 (centres undefined) | / | -8 | i | 27 | -10 | -9 | 40 | /
Cc1cc(Cl)c2oc(C(=O)N3CCN(C(=O)c4ccco4)CC3)c(C)c2c1 | -4 | -8 | + | -10 | -1 | 0 | -17 | -2
CCn1cc(C(=O)OCC(=O)Nc2c(C)n(C)n(-c3ccccc3)c2=O)c(=O)c2ccc(C)nc21 | 0 | 5 | i | 4 | 4 | 5 | / | -4
Cc1[nH]n(-c2ccccc2)c(=O)c1C=NCC1CCCO1 (centres undefined) | -8 | -1 | i | -4 | 0 | 3 | -3 | 7
Cc1c(C)n(Cc2ccccc2)c2ccc(C(=O)NCCCN3CCOCC3)cc12 | -8 | -2 | i | 61 | 1 | 1 | 1 | 4
O=C(CN1CCN(S(=O)(=O)c2ccc(F)cc2)CC1)Nc1ccc(Cl)cn1 | 8 | 8 | i | -5 | 2 | 2 | 4 | 8

Random excerpt: 3 entries already listed, in no set order.
SMILES | eIF4H inh | UUG fidelity | Rce1 inh | CSC inhib | MT1-MMP act inh | MT1-MMP act inh RFP | HIV Env fusion | PABP polyA inh | others
CN(Cc1ccc2c(c1)CCCN2C)C(=O)[C@H]1O[C@@H](n2cnc3c(N)ncnc32)[C@H](O)[C@@H]1O | / | 0 | / | / | 0 | 0 | 13 | /
O=S(=O)(NCc1ccco1)c1cccc2cccnc12 | 11 | -23 | i | 0 | -2 | 0 | / | 7
COC(=O)c1c(C)oc2ccc(NS(=O)(=O)c3cc(OC)ccc3OC)cc12 | -2 | 64 | i | 6 | 8 | -18 | / | 6

More entries.
SMILES | eIF4H inh | UUG fidelity | Rce1 inh | CSC inhib | MT1-MMP act inh | MT1-MMP act inh RFP | HIV Env fusion | PABP polyA inh | others
CCCc1cc(=O)[nH]c(SCC(=O)C(C)(C)C)n1 | -4 | -14 | i | 27 | 1 | -3 | -3 | -9
CCC(C(=O)NN1C(=O)c2ccccc2C1=O)c1ccccc1 (centres undefined) | -8 | -6 | i | -10 | 0 | 1 | 11 | -1
O=[N+]([O-])c1cc([N+](=O)[O-])c(Oc2cc(F)ccc2F)cc1NN1CCCCC1 | 1 | -12 | i | 46 | -1 | 1 | 12 | 4
Cc1c(NC2(C#N)CCCC2)c(=O)n(-c2ccccc2)n1C | 0 | / | i | -13 | 1 | 1 | / | -17
COc1ccc(CNC(=O)CCCC(=O)n2nc(C)c3ccccc32)cc1 | 1 | -23 | i | -6 | 3 | 3 | 3 | 5
C=CCN1C(=O)C(CC(=O)Nc2ccc(OC)cc2)N(Cc2ccco2)C1=S (centres undefined) | 6 | 4 | i | -9 | -4 | 4 | 20 | -3
Cc1cccc(N2C(=O)C(Oc3ccc(Cl)cc3Cl)C2C=O)c1C (centres undefined) | -3 | / | / | 47 | -5 | -12 | -1 | 4
CC(=O)Nc1ccc(S(=O)(=O)N2CCC(C(=O)NCCc3ccc(Cl)cc3)CC2)cc1 | 2 | -7 | i | 7 | -1 | -5 | 1 | -5
Nc1nc(CN2CCN(c3ccccc3F)CC2)nc(N2CCCc3ccccc32)n1 | -4 | -15 | i | 2 | -1 | 6 | 3 | -7
Cc1cc(C(=O)NC(C)Cc2ccccc2)cc(C)c1[N+](=O)[O-] (centres undefined) | -12 | / | i | 5 | 0 | -2 | 6 | 8
CC(C)(C)c1ccc(C(O)CCCN2CCC(C(O)(c3ccccc3)c3ccccc3)CC2)cc1 (centres undefined) | 1 | -4 | i | 10 | -5 | -13 | 11 | -1
O=C(O)c1cccc(NC(=O)c2cc(S(=O)(=O)N3CCOCC3)cs2)c1 | 8 | / | i | -12 | -3 | 0 | 16 | 1
CCCCn1c(N)c(N(CCOC)C(=O)C2CC(=O)N(Cc3ccc(C)cc3)C2)c(=O)[nH]c1=O (centres undefined) | / | -6 | i | -4 | -1 | 5 | / | /
CCN(CC)c1ccc(/C=C(/C#N)C(=O)NC(C)C)o1 | ? | -1 | i | -5 | -111 | 2 | 12 | ?
COc1cccc(NC(=S)N2c3ccccc3CC2C)c1 (centres undefined) | -6 | -29 | i | -4 | -4 | -2 | -4 | -4
COc1ccccc1N1CCN(CCC(=O)Nc2ccc(F)cc2)CC1 | 2 | -5 | i | -2 | 2 | 2 | 22 | -4
Cc1ccc(OCC(=O)OCC(=O)NC2CC2)cc1C | / | -14 | / | 2 | 0 | 3 | / | /
Cc1cc(C)n2nc(SC(C)C(=O)Nc3ccc(Cl)cn3)nc2n1 (centres undefined) | 10 | -11 | i | 2 | 4 | 0 | -2 | 13
CC(NC(c1ccccc1)c1ccccc1)C(=O)N1CCCc2ccccc21 (centres undefined) | 4 | / | i | -8 | -10 | -7 | / | -4
COCCNC(=O)c1cc2c(c(-c3cccc(-c4cc5ccccc5o4)c3)n1)[C@@H](CCO)N(S(=O)C(C)(C)C)C2 (some centres undefined) | / | 33 | / | / | 0 | 3 | 4 | /
Cc1cccc2cc(CN(Cc3cccs3)S(=O)(=O)c3ccc4c(c3)OCCO4)c(=O)[nH]c12 | -11 | / | i | 15 | -2 | -4 | -5 | 5
CC(=O)Nc1ccc(C(=O)N2CCCC2)cc1 | -15 | -10 | i | -10 | -5 | 4 | -92 | 3
O=C(/C=C/c1ccc2c(c1)OCO2)c1ccco1 | 21 | / | i | 5 | 0 | 5 | / | -2
Cn1c(N)c(C(=O)COC(=O)c2ccc(C(F)(F)F)cc2)c(=O)n(C)c1=O | / | -10 | / | -25 | 7 | 2 | 27 | /
CCOC(=O)c1cc(-c2ccccc2)sc1NC(=O)CSc1nnnn1C | -1 | 4 | i | 3 | -6 | -5 | 34 | -12
Cc1noc(C)c1S(=O)(=O)N(CC(=O)NC1CCC(C)CC1)c1ccc(C(C)C)cc1 (centres undefined) | -7 | -8 | i | 14 | -4 | -7 | 28 | 3
CCC(=O)NN1CCc2cc3ccc(C)cc3nc21 | -6 | -8 | i | -8 | 8 | 3 | -3 | 5
COc1ccc(C(=O)NCCC(=O)NCc2cc(=O)n(C)c(=O)n2C)cc1 | -16 | 1 | i | 15 | -1 | 5 | 0 | -15
CC1(c2ccccc2)NC(=O)N(CC(=O)Nc2ccccc2N2CCCCC2)C1=O (centres undefined) | / | -5 | i | -13 | 2 | -1 | -1 | /
O=C(NC(Cc1ccccc1)C(=O)O)/C(=C\c1ccco1)NC(=O)c1ccccc1Br (centres undefined) | 85 | 8 | i | -8 | 1 | 2 | 9 | -2 | eIF4H inh retest=4;PABP polyA inh retest=0
O=C(O)c1ccc2c(c1)C(=O)N(c1ccc(Nc3ccccc3)cc1)C2=O | -1 | -3 | i | -14 | 1 | 2 | -9 | 1
CC(C)Cc1nnc(NC(=O)CC(=O)Nc2ccccc2C(=O)O)s1 | -6 | / | i | -5 | -1 | 0 | / | 3
Cc1cnc(=O)[nH]c1SCc1cccc([N+](=O)[O-])c1 | -16 | -8 | i | 10 | 2 | 0 | 0 | 2
O=C(/C=C/c1ccc([N+](=O)[O-])cc1)NCc1cccs1 | -8 | -9 | i | 5 | 2 | -3 | / | -11
Cc1ccc(Cn2c(Sc3ncccn3)nc3c2c(=O)[nH]c(=O)n3C)cc1 | -2 | 6 | i | -3 | 5 | 4 | -64 | 3
